gsp antag: antagonizes gsp, the McCune-Albright syndrome mutation; hit rate 0.4% among 340,000; Potency, µM (doses to about 76.9 µM), without a hit: at the highest dose activity change, negative = inhibition, actives largely listed as inhibitors; AID 624288; gsp-mutant cells, cAMP HTRF, 30 min; control for the full effect not named in the record; active = falling curve of any shape with a large fitted effect; inconclusive = falling curve, mostly with a smaller effect; inactive = flat or rising curve; cell line not stated here;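 further: intracellular cAMP measured with PDE inhibitor Ro 20-1724 present during compound exposure; potency means the concentration at half of the fitted maximal effect; on the % scale 0 is the no-effect control and ±100 the full control effect; nearly all actives have a fitted effect of over 65% in size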
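HTRF cAMP measurement after 30 min RT detection following 30 min, 37C compound treatment alongside […] (added as 300 uM solution) in G418-selected cells seeded at 2000/well and grown 16–24 h.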
CtBP-E1A blk: blocks the CtBP interaction with E1A; AID 651724; activity change, % (test concentration not listed); hit rate 0.49% among 340,000; AlphaScreen GST-E1A/His-CtBP binding, 1536-well; stronger effect = lower value; control for the full effect not named in the record; in the data active means activity change below about -65%; inconclusive means about -30% to -65%; inactive means above about -30%; further: on the % scale 0 is the no-effect control and ±100 the full control effect; compound concentration not given in the record
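AlphaScreen with 125 nM GST-E1A and 125 nM His-CtBP (5X stocks) in Tris pH 8.0, 300 mM NaCl, BSA, Tween 20, TCEP. Compounds preincubated 2 h at 37 deg C, then glutathione donor/nickel acceptor beads added for 1 h at 37 deg C in dark.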
gsp ag: activates gsp, the McCune-Albright syndrome mutation. gsp mutant cells, cAMP HTRF, 30 min; control for the full effect not named in the record. Potency, µM (top dose mostly 76.9 µM), without a hit: top-dose activation (cAMP increase), most hits filed as activators. hit rate 0.13% among 340,000; active = well fitted activation curve with a large enough effect; inconclusive = small, poorly fitted or top-dose-only effect, or another doubt; inactive = no such curve, though single readings can be large or run the other way; cell line not stated here;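 further: phosphodiesterase inhibitor Ro 20-1724 added with compounds to block cAMP breakdown; potency means the concentration at half of the fitted maximal effect; nearly all actives have a fitted effect of over 60% in size; about a fifth of the inactives were tested at one dose only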
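Cells stably selected in G418 were plated at 2000/well, grown 16-24 hr, then given compounds in DMSO with the PDE inhibitor […] (300 uM solution added) for 30 min at 37C; cAMP was read by HTRF.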
D2 ag: agonists of human D2 dopamine receptor (beta-arrestin); DiscoveRx PathHunter D2 beta-arrestin, luminescence, 90 min; 100% = 57 uM dopamine signal; activation, % (test concentration not listed); hit rate 0.084% among 360,000; AID 624465; in the data active = activation above about 40%; inconclusive = about 15% to 40%; inactive = below about 15%; further: compound concentration not given in the record; the text of the record calls up to 30% inactive
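Agonist mode: compounds alone added to overnight-plated D2 PathHunter cells for 90 min at 37 C, with 57 uM final dopamine (EC100) defining full response. Beta-arrestin recruitment detected by chemiluminescent reagent, read after 1 h at ambient temperature.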
Six1-Eya2 inh: Six1/Eya2 interaction inhibition; Q15475+O00167; AlphaScreen GST-Six1/His-Eya2 binding, biochemical; stronger effect = lower value; control for the full effect not named in the record; AID 651725; activity change, % (test concentration not listed); hit rate 0.56% among 360,000; in the data active = activity change below about -65%; inconclusive = about -30% to -65%; inactive = above about -30%; further: on the % scale 0 is the no-effect control and ±100 the full control effect; compound concentration not given in the record
Target sequence (O00167 whole entry, looked up): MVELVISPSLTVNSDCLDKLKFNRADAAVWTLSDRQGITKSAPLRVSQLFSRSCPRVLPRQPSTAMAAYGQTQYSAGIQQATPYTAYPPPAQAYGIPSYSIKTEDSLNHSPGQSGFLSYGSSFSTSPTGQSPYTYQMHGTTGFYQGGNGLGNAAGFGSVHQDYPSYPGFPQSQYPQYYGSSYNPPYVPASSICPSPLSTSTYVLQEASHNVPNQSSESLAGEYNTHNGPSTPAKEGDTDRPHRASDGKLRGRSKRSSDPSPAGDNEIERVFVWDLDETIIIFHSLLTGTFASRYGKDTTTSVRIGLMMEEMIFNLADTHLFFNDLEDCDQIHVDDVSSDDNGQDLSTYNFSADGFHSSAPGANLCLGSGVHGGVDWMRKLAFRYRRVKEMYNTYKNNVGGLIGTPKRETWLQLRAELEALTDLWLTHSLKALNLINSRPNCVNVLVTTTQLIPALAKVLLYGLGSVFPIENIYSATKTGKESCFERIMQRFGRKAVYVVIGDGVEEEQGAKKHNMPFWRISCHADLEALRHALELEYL
Target sequence (Q15475 whole entry, looked up): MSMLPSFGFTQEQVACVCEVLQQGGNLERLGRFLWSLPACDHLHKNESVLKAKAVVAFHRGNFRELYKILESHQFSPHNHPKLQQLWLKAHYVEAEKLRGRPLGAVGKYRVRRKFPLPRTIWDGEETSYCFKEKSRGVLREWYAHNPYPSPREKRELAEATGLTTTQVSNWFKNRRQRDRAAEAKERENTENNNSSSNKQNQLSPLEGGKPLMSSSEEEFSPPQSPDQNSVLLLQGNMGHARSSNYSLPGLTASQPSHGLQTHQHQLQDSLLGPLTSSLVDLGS
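Homogeneous AlphaScreen proximity assay pairing GST-Six1 with His-tagged Eya2 (added as 5X mix: 250 nM and 500 nM) in 50 mM Tris pH 8.0, 300 mM NaCl, 1 mM TCEP. Glutathione donor and nickel acceptor beads; 1 h, 37 °C, dark.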
D2 PAM: human D2 receptor positive allosteric modulation; P14416; DiscoveRx D2 beta-arrestin cells, luminescence, 90 min; 100% = 57 uM dopamine signal; potentiation, % (test concentration not listed); hit rate 0.23% among 360,000; AID 624464; active = potentiation of 50% or more; inconclusive = 30% to 50%; inactive = 30% or less;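 further: compound concentration not given in the record; tested on top of an EC20 dose of dopamine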
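D2 cells co-treated with compound plus 50 nM dopamine (EC20) for 90 min at 37 deg C to detect potentiation. Beta-arrestin recruitment was read as enzyme-fragment luminescence after 1 h at ambient temperature. Full response was set by 57 uM dopamine.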
The depositor's hits bear a star; ? = inconclusive; nt = not tested or not shown; [ ] = another dose, or the depositor's remark.

SMILES	gsp antag	CtBP-E1A blk	gsp ag	D2 ag	Six1-Eya2 inh	D2 PAM
Cc1cc(C(=O)N/N=C/c2cccc([N+](=O)[O-])c2O)n[nH]1	-15%	nt	-16%	-15	-91*	-14
CCCOC(=O)NC1CCS(=O)(=O)C1 (centres undefined)	1%	6	15%	0.4	3	-2
COc1ccc(S(=O)(=O)N2CCCC(C(=O)Nc3ccc(NC(=O)c4ccccn4)cc3)C2)cc1 (centres undefined)	0%	34	7%	0.8	10	15
COc1ccccc1CNC(=O)/C(C#N)=C/c1ccc(OC)c(OC)c1OC	-4%	0	?	-0.5	-5	-3
CCOC(=O)c1c(C)c(C(=O)NCCc2ccc(S(N)(=O)=O)cc2)c(C)n1CC	-12%	-2	6%	-1.8	-6	-18
CC(C)OC(=O)CSc1nnc(Cc2ccccc2)n1Cc1ccco1	-16%	-1	5%	-0.4	-2	-1
CC1(C)CC(C(CC(=O)Nc2nccs2)c2ccccc2)CCO1 (centres undefined)	-6%	nt	2%	6.2	3	0
CN(CC(=O)Nc1ccc(Cl)c(C(F)(F)F)c1)C(=O)c1cccnc1Sc1ccccc1	-19%	3	?	1.1	-1	-7
Cc1ccc2c(COC(=O)c3ccc(NC(=O)CC#N)cc3)cc(=O)oc2c1C	-7%	-15	-1%[15.4 µM]	-0.2	8	10
CON(C)C(=O)CCN(C(=O)OC(C)(C)C)c1ccccc1	6%	-2	20%	-4.0	-16	-9
CCc1nc2oc3ccccc3c(=O)c2cc1C(=O)OC	11%	3	-6%[15.4 µM]	1.1	4	-3
COc1ccc(Cc2nnc(SCc3nc4ccccc4c(=O)[nH]3)n2C)cc1	-6%	9	-29%	2.5	-4	9
CCOC(=O)C1=C(C)NC(SCC(N)=O)=C(C#N)C1c1ccccc1 (centres undefined)	-18%	-12	-3%	-0.3	-3	0
O=C(CCC(F)(F)F)N1CCC(CO)(CCc2ccccc2)CC1	1%	nt	-31%[inhibitor]	-4.0	-1	13
CCN(CC(=O)NC1CCS(=O)(=O)C1)S(=O)(=O)c1cccc(C(C)=O)c1 (centres undefined)	-4%	2	18%[15.4 µM]	-7.0	15	-6
O=C(CSc1nc(=O)n2ccccc2n1)N1CCCCCC1	14%	9	26%	-4.1	3	-5
CN1C(=S)SC(N(O)C(=O)Nc2ccccc2)C1(C)C (centres undefined)	3%	-1	-31%[inhibitor]	-3.7	-2	0
O=C1CN(C(=O)C2CCCC2)CCN1	7%	0	0%	-2.7	-13	-16
CCNC(=S)Nc1scc(-c2ccccc2)c1C(=O)OCC	-14%	-5	?	-0.5	-14	-33
COc1ccc(S(=O)(=O)NNC(=O)c2csc(-n3nc(C)cc3C(F)(F)F)n2)cc1	-8%	-3	-15%	-1.6	-5	-27
CCN(C(=O)CSc1nnnn1-c1cc(C)ccc1OC)C1CCS(=O)(=O)C1 (centres undefined)	-12%	2	4%	0.7	5	10
CCC(=O)NC(c1ccc(OC)cc1)c1c(O)ccc2ccccc12 (centres undefined)	11%	nt	-31%	-12	1	-13
COc1cc(C(=O)NCc2ncccc2C)ccc1OC1CCN(C(C)=O)CC1	11%	1	41%	-0.7	3	4
Cc1ccc(SCC(=O)N(C)CC(=O)Nc2cccc(F)c2)c(C)c1	2%	-16	4%	-2.1	0	-15
O=C(Nc1ccccc1N1CCCCC1)c1ccc(N2C(=O)c3ccccc3C2=O)cc1	-8%	-5	-52%[inhibitor]	0.5	4	-7
COc1ccc(C2(c3ccc(OC)cc3)NC(=O)N(CC(=O)Nc3ccc(OC)c(OC)c3)C2=O)cc1	-7%	-8	-2%[15.4 µM]	3.1	-10	-5
O=C(NCc1ccc2c(c1)OCO2)C1CCN(S(=O)(=O)c2cccc3nsnc23)CC1	-9%	15	8%[15.4 µM]	-1.7	2	-1
CC1(C)OC(=O)C(=C2CCCN2)C(=O)O1	6%	6	-9%	-3.2	11	4
Cc1cc(C(=O)N2CCCC(Nc3ccc(F)cc3)C2)n(C)n1 (centres undefined)	7%	6	-107%[inhibitor]	-2.0	4	-12
O=C(Nc1ccn(CCCN2CCN(Cc3ccc(F)cc3)CC2)c(=O)n1)OCc1ccccc1	nt	3	15%	-3.0	1	-15
CCO[C@H]1OC(C(=O)Nc2ccccc2)=C[C@@H](c2ccc(C(F)(F)F)cc2)[C@@H]1CCCO	?	2	nt	-3.1	1	-7
CN(CC(=O)c1c(N)n(C)c(=O)n(C)c1=O)c1ccccc1	-12%	-2	55%[15.4 µM]	4.9	-6	0
CSCCC1COC(c2cccs2)=N1 (centres undefined)	16%	4	-16%[15.4 µM]	4.3	1	-2
CCOc1cc(C=O)ccc1OCC(=O)NC(C)(C)C	8%	6	12%	1.0	5	2
CCOc1ccc(NC(=O)NNC(=O)C(C)Oc2ccccc2OC)cc1 (centres undefined)	-3%	5	14%[15.4 µM]	-2.2	-12	-7
CC[C@@]12C(=O)N(c3ccc(C)cc3)C(=O)N1[C@H](c1cccc(C)c1)[C@@H]1C(=O)N(Cc3ccccc3)C(=O)[C@@H]12	-5%	0	0%	-2.1	-4	-13
O=C(NC1CCCCC1)C1CCN(S(=O)(=O)c2cccs2)CC1	9%	3	-20%	-2.9	-1	3
CC(OC(=O)C1CC2CCCC(C1)C2=O)C(=O)Nc1cccc([N+](=O)[O-])c1 (centres undefined)	0%	nt	?	-2.3	7	-13
CCCN(CCC)C1=N/C(=C\c2ccco2)C(=O)N1c1ccccc1	0%	14	6%	0.9	19	-11
C/C(=N\NC(=O)c1c[nH]c2ccccc12)c1ccc(C)o1	-5%	-86*	4%	-2.2	-79*	-3
Fc1ccc(NC(=S)N2N=CCC2c2ccccc2)cc1 (centres undefined)	-5%	6	?	-3.8	-1	-10
O=C1NC2=C(C(=O)CCC2)C(c2cccc([N+](=O)[O-])c2)N1 (centres undefined)	2%	-2	-1%[15.4 µM]	0.4	0	-2
COc1ccc(NC(=O)CSc2nc3ccc(OC)cc3[nH]2)cc1	1%	2	-36%[inhibitor]	-8.4	0	1
Cc1cccc(-n2c(C)cc(/C=C3/C(=N)N4C(c5ccccc5)=CSC4=NC3=O)c2C)c1	10%	2	-5%	-3.7	14	-2
O=C(NCCc1ccc(F)cc1)c1cccc2c1C(=O)c1ccc(N3CCC(Cc4ccccc4)CC3)cc1S2(=O)=O	6%	5	nt	-5.4	9	-4
CCOC(=O)Cc1csc(/N=C/c2c(O)n(-c3ccc(C)c(C)c3)c(=O)c3ccccc23)n1	-8%	4	-3%	-0.4	0	-8
O=C(CCc1ccccc1)Nc1nn[nH]n1	1%	3	-3%	-1.8	0	13
C=CCN=C(NC#N)SC	8%	nt	?	-6.1	9	-44
CCSCc1nc(N)nc(NCCc2ccccc2)n1	3%	nt	-32%[inhibitor]	3.3	5	19
CCOC(=O)N1CCC(NC(=O)CN2C(=O)C(CC)Oc3ccc(C)cc32)CC1 (centres undefined)	1%	2	-14%	1.5	5	-6

The list continues.
SMILES	gsp antag	CtBP-E1A blk	gsp ag	D2 ag	Six1-Eya2 inh	D2 PAM
COc1ccccc1NC(=O)Nc1ccccc1SC	6%	-4	11%[15.4 µM]	-1.4	2	-11
Cc1ccc2oc(=O)c3cc(C(=O)NCCCN4CCN(C)CC4)sc3c2c1	12%	-1	?	1.3	0	-13
O=C(CCC1CCCN(C(=O)C2(c3ccccc3)CC2)C1)N1CCN(c2ccccn2)CC1 (centres undefined)	-16%	7	-17%[15.4 µM]	-2.5	3	-3
COC(=O)c1ccccc1NC(=O)c1cc([N+](=O)[O-])nn1Cc1ccccc1	-15%	-22	7%	-2.7	-1	-5
CC(CN1CCOCC1)C(=O)O (centres undefined)	8%	6	-12%	-1.4	3	-19
CCCn1c(SCC(=O)N2c3ccccc3CCc3ccccc32)nc2c1c(=O)n(C)c(=O)n2C	-2%	3	-9%	1.5	3	7
CC(=O)N1N=C(c2c(-c3ccccc3)c3cc(Br)ccc3[nH]c2=O)CC1c1ccco1 (centres undefined)	-39%	20	10%	3.3	0	3
COc1ccc(S(=O)(=O)NC(=O)C2(C)CCN2C(=O)CC2CC2)cc1 (centres undefined)	nt	10	nt	7.1	9	-3
C=CCc1cc(C)ccc1OCCCC(C(=O)OCC)C(=O)OCC	-18%	3	-4%[15.4 µM]	-3.0	50	-2
O=S(=O)(Nc1ccc(Br)cc1)c1cccc(NS(=O)(=O)c2cccs2)c1	-18%	-4	5%	-1.5	5	3

Laid out differently: 6 of the compounds above.
Under each structure: gsp antag, CtBP-E1A blk, gsp ag, D2 ag, Six1-Eya2 inh, D2 PAM
COc1ccc(Cc2nnc(SCc3nc4ccccc4c(=O)[nH]3)n2C)cc1
→ -6%, 9, -29%, 2.5, -4, 9
CCOC(=O)C1=C(C)NC(SCC(N)=O)=C(C#N)C1c1ccccc1 (centres undefined)
→ -18%, -12, -3%, -0.3, -3, 0
O=C(CCC(F)(F)F)N1CCC(CO)(CCc2ccccc2)CC1
→ 1%, nt, -31%[inhibitor], -4.0, -1, 13
CCN(CC(=O)NC1CCS(=O)(=O)C1)S(=O)(=O)c1cccc(C(C)=O)c1 (centres undefined)
→ -4%, 2, 18%[15.4 µM], -7.0, 15, -6
O=C(CSc1nc(=O)n2ccccc2n1)N1CCCCCC1
→ 14%, 9, 26%, -4.1, 3, -5
CN1C(=S)SC(N(O)C(=O)Nc2ccccc2)C1(C)C (centres undefined)
→ 3%, -1, -31%[inhibitor], -3.7, -2, 0

Next results.
SMILES	gsp antag	CtBP-E1A blk	gsp ag	D2 ag	Six1-Eya2 inh	D2 PAM
CCCC(C)C(=O)Nc1ccc(Cl)cc1Cl (centres undefined)	2%	9	2%	-1.4	3	-28
c1cc(CNC2C3CC4CC(C3)CC2C4)ccn1 (centres undefined)	11%	-19	15%	-0.2	1	-4
COc1ccccc1Nc1nc(N)nc(CN2CCN(c3ccccc3)CC2)n1	5%	-15	13%	6.5	-17	-6
COc1cccc(OCc2ccc(Cn3nc(NC(=O)NCCc4ccc(OC)c(OC)c4)c4ccccc43)cc2)c1	nt	1	nt	-3.2	-15	-21
COc1cc(OC)c(NS(=O)(=O)c2c(C(=O)N3CCCCC3)c(C)n(C)c2C)cc1Cl	-6%	nt	-39%	-5.1	3	-10
Cc1noc(NS(=O)(=O)c2ccc(N3C(=O)c4ccccc4C3=O)cc2)c1C	43%[activator]	3	2.2µM*	-0.7	0	-7
Cc1c([N+](=O)[O-])c(C(=O)NC2CCCCC2)nn1C	12%	7	8%	-5.3	3	-1
Cc1ccc2c(c1)cc1c(=O)n(CC(=O)NCCN3CCCC3)nc(C)n12	12%	nt	?	-2.3	3	-7
Cc1cccc(CSc2ccc(-c3cccs3)nn2)c1	6%	0	?	2.5	20	13
COC(=O)c1cn(C)c2ccc(S(=O)(=O)N3CCOCC3)cc2c1=O	7%	nt	?	-1.2	0	1
CCn1c(SCC(=O)Nc2ccc(C(C)=O)cc2)nc2c([nH]c3ccccc32)c1=O	-10%	2	?	-0.6	-1	-1
O=C(Nc1cccc2c1C(=O)NC2=O)c1cccnc1Cl	6%	3	?	-3.8	-5	-5
CC1=C(C(=O)OC(C)C)C(C)NC(=O)N1 (centres undefined)	15%	1	9%	-3.3	-1	1
